VDR inh: vitamin D3 receptor (human) inhibition | VDR-SRC2-3 peptide fluorescence polarization, 2 h | Potency, µM, without a hit: max response, negative = inhibition, hits mostly inhibitors | actives 0.93% (n = 400,000); active means well fitted inhibition curve with a large enough effect; inconclusive means small, poorly fitted or top-dose-only effect, or another doubt; inactive means no such curve, though single readings can be large or run the other way; further: series mostly up to about 120 µM
Target sequence (P11473 whole entry, looked up): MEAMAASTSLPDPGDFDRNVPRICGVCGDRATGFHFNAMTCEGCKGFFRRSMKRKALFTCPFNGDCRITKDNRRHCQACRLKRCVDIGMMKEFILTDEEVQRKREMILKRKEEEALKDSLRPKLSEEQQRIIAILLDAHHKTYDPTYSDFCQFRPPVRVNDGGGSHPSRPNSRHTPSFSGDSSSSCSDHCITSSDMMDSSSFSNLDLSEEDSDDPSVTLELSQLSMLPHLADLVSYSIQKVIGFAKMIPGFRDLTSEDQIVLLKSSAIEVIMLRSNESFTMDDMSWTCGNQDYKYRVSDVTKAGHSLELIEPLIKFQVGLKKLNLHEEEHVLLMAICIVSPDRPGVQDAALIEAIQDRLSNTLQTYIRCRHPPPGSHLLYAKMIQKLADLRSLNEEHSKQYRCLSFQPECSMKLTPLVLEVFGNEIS
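Reagent solutions, kept cold and dark, are dispensed first; compounds are then pinned in at 23 nl, plates briefly spun, and incubated 2 h at ambient temperature. Inhibition of VDR–SRC2-3 peptide binding is read by fluorescence polarization.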
* marks the source's active call; other numbers are inactive results; ? = inconclusive; & = joins results of further samples. On the % scale 0 is the no-effect control and ±100 the full control effect; potency means the concentration at half of the fitted maximal effect. The list is partial; the hit share may differ from the screen's.

no.	VDR inh	Molecule
1	-5%	CCS(=O)(=O)N1CCN(c2ccc(Cl)cc2[N+](=O)[O-])CC1
2	-26%	Cc1ccc(OC(=O)c2cc(=O)c3ccccc3o2)cc1
3	17%	Cc1[nH]c(C)c(S(=O)(=O)Nc2ccccc2)c1C(=O)N1CCCC1
4	-8%	COc1ccc(NC(=O)NCCCCc2ccccc2)c(OC)c1
5	-19%	Cc1ccccc1S(=O)(=O)Cc1ccc(C(=O)NCc2ccccc2)o1
6	8%	COc1ccc(NC(=S)Nc2ccc(F)cc2)c(OC)c1
7	5%	COc1ccc(C(=O)C2CCCN(Cc3c(F)ccc(F)c3F)C2)c(OC)c1 (configuration not stated)
8	-1%	C=CCNC(=O)/C(=C\c1ccc(Br)cc1)NC(=O)c1ccccc1OC
9	3%	CC12CCC(=O)C=C1CCCC2=O (configuration not stated)
10	-8%	CCNC(=S)NNC(=O)c1ccccc1Cl
11	-7%	O=C(Cn1nc(-c2ccc(Cl)cc2)c2ccccc2c1=O)Nc1cccnc1
12	-1%	COc1ccc(-c2cc3nc(CCl)[nH]c(=O)c3s2)cc1
13	-27%	COc1ccc(NC(=O)c2cccnc2NCCc2ccccc2)cc1
14	-7%	Cc1cccn2cc(CCNC(=O)c3ccc(Br)o3)nc12
15	9%	CCc1ccc(NC(=O)CC2C(=O)N(c3ccc(Cl)cc3)C(=O)N2C2CCCC2)cc1 (configuration not stated)
16	0%	Cc1nc(-c2ccc(Cl)cc2)sc1C1(C)CC(c2ccc(Br)cc2)=NO1 (configuration not stated)
17	?	COC(=O)c1ccccc1S(=O)(=O)C(C)(C)C
18	-6%	C[C@H](CO)N1C[C@H](C)[C@H](CN(C)S(=O)(=O)c2ccccc2)Oc2ccc(NC(=O)NC3CCCCC3)cc2CC1=O
19	7%	O=C(Nc1c(C(=O)Nc2ccccc2F)oc2ccccc12)c1cc2ccccc2o1
20	-13%	Cc1ccc(Cc2cnc(NC(=O)C3CCCO3)s2)cc1 (configuration not stated)
21	-3%	COc1cccc(CSc2nc3cc4c(cc3cc2C)OCCO4)c1
22	3%	COc1ccccc1C(=O)Nc1ccnn1C1CCN(C(=O)C2CCOC2)CC1 (configuration not stated)
23	-15%	Cc1c(Cl)cccc1NC(=O)c1noc2c1CCCC2
24	-4%	COc1ccc(OC)c(NC(=O)COC(=O)CNC(=O)c2ccc(OC)c(OC)c2)c1
25	11%	CCc1nnc(SCc2ccc(OC(C)C)cc2)n1N
26	-10%	Cc1ccc(CNC(=O)COC(=O)c2ccc(S(=O)(=O)N3CCCCCC3)cc2)cc1
27	10%	Cc1ccc(OC[C@H](O)[C@H](C)NC(C)C)c2c1CCC2
28	-6%	Cc1cccc(-c2ccc(-c3cc(=O)oc4cc(C)cc(C)c34)cc2)c1
29	-15%	CCOC(=O)N1CCN(C(=O)CCn2c(=S)[nH]c3ccsc3c2=O)CC1
30	-9%	Cc1ccc(C)c(OCc2ccc(C(=O)N3N=C(C(F)F)CC3(O)C(F)F)o2)c1 (configuration not stated)
31	5%	Cc1cc(C(=O)Nc2nnc(C3CCCCC3)s2)no1
32	2%	CC(C)Cn1c(CCNC(=O)c2ccco2)nc2ccccc21
33	-10%	Cc1ccnn1CCC(=O)N1CCCC(CCC(=O)N2CCN(c3ccccn3)CC2)C1 (configuration not stated)
34	15%	Cc1cccc(C(=O)NC(=S)Nc2ccc(S(=O)(=O)N(C)c3ccccc3)cc2)c1
35	-23%	COc1ccc(CN(CCC(c2ccccc2)c2ccco2)C(=O)c2ccco2)cc1 (configuration not stated)
36	-24%	CC(C)(C)c1cc(OC(=O)C2CCCC2)ccc1O

3 entries picked at random from those above, as already listed:
no.	VDR inh	Molecule
30	-9%	Cc1ccc(C)c(OCc2ccc(C(=O)N3N=C(C(F)F)CC3(O)C(F)F)o2)c1 (configuration not stated)
29	-15%	CCOC(=O)N1CCN(C(=O)CCn2c(=S)[nH]c3ccsc3c2=O)CC1
32	2%	CC(C)Cn1c(CCNC(=O)c2ccco2)nc2ccccc21

(list continues)
no.	VDR inh	Molecule
37	-25%	COC(=O)C1(Cc2cc(-c3cccc(Br)c3)no2)CCN(C(=O)OC(C)(C)C)CC1
38	29%	O=C(NCc1c(F)cccc1F)c1cc(COc2c(F)cccc2F)on1
39	-20%	CCc1nc(SCC(=O)N2CCN(C(=O)c3ccco3)CC2)c2c3c(sc2n1)CCCC3
40	-10%	COc1ccccc1NC(=S)NCCSc1ccc(C)cc1
41	-15%	CCN(CCNC(=O)C1CCC(=O)N1Cc1ccc(C)cc1)c1ccccc1 (configuration not stated)
42	5%	Cc1c(C(=O)N2CCOCC2)sc(NC(=O)c2ccc([N+](=O)[O-])cc2)c1C#N
43	19%	O=C(CSCc1ccc(Cl)cc1)N/N=C/c1ccc(OCC(=O)Nc2ccccc2)cc1
44	-3%	Cn1c2c(c(=O)n(C)c1=O)C(C(F)(F)F)(C(F)(F)F)N=C(C1CCCCC1)N2
45	0%	Cc1ccc(C(=O)c2ccc([N+](=O)[O-])cc2)cc1
46	1%	CCC(C)NC(=O)C1c2cc(OC)c(OC)cc2C(=O)N(C)C1c1cccs1 (configuration not stated)
47	-6%	CCOC(=O)c1cc(NC(=O)CSc2nnc(CN3CCOCC3)n2C)ccc1Cl
48	-9%	CCC(=O)c1c(NC(CC)CO)cc(C)oc1=O (configuration not stated)
49	-22%	COC(=O)c1nn(-c2ccc(OC)cc2)c(=O)cc1Oc1ccccc1
50	-5%	COc1ccc(C[C@@H]2CN3C(=NC[C@@H]3C)N2C[C@H](C)NC(=O)CCC2CCCCC2)cc1
51	-2%	Cn1c(=O)c(/C(N)=N/OC(=O)c2ccccc2)cn(-c2ccccc2)c1=O
52	-16%	CN(C)c1ccc(N=Nc2ccc(S(N)(=O)=O)cc2)cc1
53	-6%	CCOC(=O)C(C)Oc1ccc(=O)n(-c2ccccc2)n1 (configuration not stated)
54	2%	COc1cc(C2C=C(c3cccs3)Nc3ncnn32)cc(OC)c1OC (configuration not stated)
55	-12%	COc1ccc(CN(C(=O)c2cccs2)c2ccccc2C(=O)O)cc1
56	-10%	O=C(CSc1nccc(=O)[nH]1)NCc1ccc(Cl)cc1
57	-2%	CN1C(=S)SC2CS(=O)(=O)CC21 (configuration not stated)
58	-16%	COc1ccc(NCC(=O)Nc2cc(S(=O)(=O)N3CCOCC3)ccc2N2CCOCC2)c(OC)c1
59	4%	O=C1CN(C(=O)CNC(=O)c2ccccc2Cl)c2ccccc2N1
60	-6%	CC(C)(C)NC(=O)CN(C(=O)CCC(=O)Nc1nccs1)c1ccc(F)cc1
61	-4%	COc1ccc(-n2nc(C(=O)NCC(=O)NCCCN3CCN(C)CC3)c3ccccc3c2=O)cc1OC
62	11%	COc1ccc(CCNC(=O)CCn2cccc2)cc1OC
63	7%	Cc1ccc2c(c1)-c1nc3ccccc3cc1C2=NC1CCCCC1
64	-16%	Cc1ccc(CNCc2cc(Cl)ccc2O)cc1
65	?	Cc1c(NC(=S)NC(=O)C(c2ccccc2)c2ccccc2)cccc1C(=O)O
66	17%	COCCNCCCOc1ccc(Cl)cc1Br
67	-14%	CCn1nnnc1SCC(=O)c1ccc(NC(C)=O)cc1
68	-10%	Cc1cc(NC(=O)CSc2ccc3nnc(-c4cccc(F)c4)n3n2)no1
69	1%	O=C(Nc1nnc(-c2ccccc2)s1)c1cc(S(=O)(=O)N2CCOCC2)c(Cl)cc1Cl
70	4%&-7%	CN1CCC(=O)N(CCSc2ccc(Br)cc2)CC1
71	-3%	O=C(Nc1cccc(NS(=O)(=O)c2ccc(S(=O)(=O)NC3CC3)cc2)c1)c1ccccn1
72	-9%	CC(C)C(=O)N1CCN(c2ccccc2NC(=S)NC(=O)Cc2ccccc2)CC1
73	-8%	CN1C[C@@H]2[C@@H]3C(=O)N(Cc4ccccc4)C(=O)[C@@H]3[C@](C)(C1=O)N2C(=O)c1ccccc1
74	0%	CCOc1ccc(NC(=O)CN(C)CC(=O)Nc2ccc(F)c(F)c2F)cc1OCC
75	0%	COc1ccc(CNC(=O)c2cc3c(=O)[nH]c4ccccc4c3n2C)c(OC)c1
76	-21%	CCOC(=O)C(=O)Cc1cccnn1
77	-1%	CC(C(=O)N1CCCC1)N1CCN(c2ccccc2O)CC1 (configuration not stated)
78	-17%	CC(C(=O)N1CCc2ccccc21)N(C)CC(=O)Nc1cccc(F)c1 (configuration not stated)
79	79µM*	COC(=O)c1ccc(-n2c(C)cc(C(=O)CCl)c2C)cc1
80	6%	CCC(C)(C)NC(=O)C(c1ccc(OC)cc1)N(C(=O)CCC(=O)Nc1cc(C)on1)C(C)(C)C (configuration not stated)
81	-5%	Cc1ccc(N2C(=O)N3[C@H](c4ccc(Br)cc4)[C@@H]4C(=O)N(C(C)(C)C)C(=O)[C@@H]4[C@]3(C)C2=O)cc1
82	-4%	Cc1ccc(NC(=O)CSc2nc3ccccc3c(=O)[nH]2)cc1[N+](=O)[O-]
83	7%	O=c1c2ccccc2nnn1COc1ccc(Cl)cc1Br

Structures above with a Cl atom:
no.	VDR inh	Molecule
1	-5%	CCS(=O)(=O)N1CCN(c2ccc(Cl)cc2[N+](=O)[O-])CC1
10	-8%	CCNC(=S)NNC(=O)c1ccccc1Cl
11	-7%	O=C(Cn1nc(-c2ccc(Cl)cc2)c2ccccc2c1=O)Nc1cccnc1
12	-1%	COc1ccc(-c2cc3nc(CCl)[nH]c(=O)c3s2)cc1
15	9%	CCc1ccc(NC(=O)CC2C(=O)N(c3ccc(Cl)cc3)C(=O)N2C2CCCC2)cc1 (configuration not stated)
16	0%	Cc1nc(-c2ccc(Cl)cc2)sc1C1(C)CC(c2ccc(Br)cc2)=NO1 (configuration not stated)
23	-15%	Cc1c(Cl)cccc1NC(=O)c1noc2c1CCCC2
43	19%	O=C(CSCc1ccc(Cl)cc1)N/N=C/c1ccc(OCC(=O)Nc2ccccc2)cc1
47	-6%	CCOC(=O)c1cc(NC(=O)CSc2nnc(CN3CCOCC3)n2C)ccc1Cl
56	-10%	O=C(CSc1nccc(=O)[nH]1)NCc1ccc(Cl)cc1
59	4%	O=C1CN(C(=O)CNC(=O)c2ccccc2Cl)c2ccccc2N1
64	-16%	Cc1ccc(CNCc2cc(Cl)ccc2O)cc1
66	17%	COCCNCCCOc1ccc(Cl)cc1Br
69	1%	O=C(Nc1nnc(-c2ccccc2)s1)c1cc(S(=O)(=O)N2CCOCC2)c(Cl)cc1Cl
79	79µM*	COC(=O)c1ccc(-n2c(C)cc(C(=O)CCl)c2C)cc1
83	7%	O=c1c2ccccc2nnn1COc1ccc(Cl)cc1Br
